TRPML1 agonist – agonists of human TRPML1 channel; TRPML1-expressing cells, Ca2+ dye fluorescence, FDSS; host cell line not named in the record; reference of the full effect not given here; activation, % (test concentration not listed); hit rate 0.12% among 410,000; AID 624414; in the data active = activation above about 50%; inconclusive = about 30% to 50%; inactive = below about 30%; further: 0% is about no effect; the text of the record puts the active cut at 80%
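Tet-induced TRPML1-DL cells, 1,500 per well, cultured overnight, were loaded with a no-wash Ca2+ dye for 45–90 min. Calcium fluorescence was recorded on the FDSS for 110 s after compound addition, before the EC80 agonist (4 uM 54-4) was added.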
PINK1 modulator – modulators of PINK1 expression. PINK1 immunofluorescence, high-content cytometry, 24 h. Potency, µM (top dose mostly 76.6 µM), inactives show top-dose activation (PINK1 increase), actives largely listed as activators. hit rate 0.2% among 410,000; active = well fitted activation curve with a large enough effect; inconclusive = small, poorly fitted or top-dose-only effect; inactive = flat fitted curve, though single readings scatter; cell line not stated here;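 further: potency means the concentration at half of the fitted maximal effect; % of control where 0% means no effect; nearly all actives have a fitted effect of over 65% in size; a mitochondrial uncoupler was the plate control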
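PINK1 protein level read as immunofluorescence by microplate cytometer in a fixed, stained stable cell line after 24 h exposure to five compound concentrations, with CCCP as control.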
TRPML1 inh – human mucolipin-1 channel inhibition. TRPML1-inducible cells, Ca2+ dye fluorescence, FDSS; active compounds read low; inhibition of EC80 agonist-evoked calcium signal. activity change, negative = inhibition, % (concentration not given with the values). hit rate 0.02% among 390,000; in the data active means activity change below about -50%; inconclusive means about -30% to -50%; inactive means above about -30%;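 further: stimulus is agonist 54-4 at its EC80 concentration; on the % scale 0 is the no-effect control and ±100 the full control effect; the text of the record puts the active cut at -80%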
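TRPML1-DL cells, Tet-induced overnight (~16 h, 37 °C) at 1,500 cells/well, were loaded with Ca8 no-wash dye plus quencher for 45-90 min at room temperature. Compounds were pinned during FDSS kinetic reading; agonist 54-4 at EC80 (4 uM final) then added.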
TRPV1 potentiator – potentiators of human vanilloid receptor 1 (TRPV1); AID 540277; Q8NER1; TRPV1-expressing cells, Fluo-8 calcium influx, capsaicin EC20 potentiation; host cell line not named in the record; control for the full effect not named in the record; hit rate 0.02% among 320,000; potentiation, % at 8.33 µM; active means potentiation above 80%; inconclusive means 30% to 80%; inactive means below 30%; further: 0% is about no effect
Target sequence (Q8NER1 whole entry, looked up): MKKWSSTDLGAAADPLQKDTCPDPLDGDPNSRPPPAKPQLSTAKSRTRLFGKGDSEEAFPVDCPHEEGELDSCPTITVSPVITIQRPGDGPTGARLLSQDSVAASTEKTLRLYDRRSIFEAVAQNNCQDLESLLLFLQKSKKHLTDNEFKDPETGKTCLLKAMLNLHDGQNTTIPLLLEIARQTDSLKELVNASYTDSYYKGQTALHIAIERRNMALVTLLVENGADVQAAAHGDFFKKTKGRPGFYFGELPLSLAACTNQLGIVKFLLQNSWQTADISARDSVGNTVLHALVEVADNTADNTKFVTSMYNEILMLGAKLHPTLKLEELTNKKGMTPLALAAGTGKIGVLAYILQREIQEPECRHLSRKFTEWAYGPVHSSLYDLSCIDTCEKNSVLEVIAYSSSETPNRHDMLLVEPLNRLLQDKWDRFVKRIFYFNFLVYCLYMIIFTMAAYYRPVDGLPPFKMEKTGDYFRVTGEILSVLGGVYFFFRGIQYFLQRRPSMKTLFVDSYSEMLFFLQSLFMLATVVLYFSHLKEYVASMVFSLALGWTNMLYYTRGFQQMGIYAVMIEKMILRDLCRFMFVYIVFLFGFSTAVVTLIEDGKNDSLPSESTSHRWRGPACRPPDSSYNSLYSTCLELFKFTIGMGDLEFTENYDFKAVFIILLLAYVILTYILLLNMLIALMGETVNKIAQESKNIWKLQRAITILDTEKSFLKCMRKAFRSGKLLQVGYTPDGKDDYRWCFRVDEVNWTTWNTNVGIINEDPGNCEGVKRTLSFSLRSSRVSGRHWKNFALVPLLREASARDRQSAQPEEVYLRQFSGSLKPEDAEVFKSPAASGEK
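Fluo-8 calcium influx in TRPV1-expressing cells, kinetic read (ex 480/em 520 nm). Compound added and read 3 min for agonist activity, followed by capsaicin at EC20 final and 2 min further read for enhancement.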
ClpP mod – qHTS Assay for Activators of ClpP; Potency, µM (top dose mostly 57.5 µM), for the others: top-dose activity change, negative = active; ATP-dependent Clp protease proteolytic subunit (Bacillus subtilis (strain 168)), P80244; purified B. subtilis ClpP, FRET peptide cleavage, 20 min; hit rate 1.9% among 340,000; active = well fitted falling curve with a large enough effect; inconclusive = small, poorly fitted or top-dose-only effect; inactive = no such curve, though single readings can be large or run the other way; further: potency means the concentration at half of the fitted maximal effect; the source files actives as falling curves though it sought activators and does not explain the sign; nearly all actives have a fitted effect of over 65% in size; many hits overshoot -100%
Target sequence (P80244 whole entry, looked up): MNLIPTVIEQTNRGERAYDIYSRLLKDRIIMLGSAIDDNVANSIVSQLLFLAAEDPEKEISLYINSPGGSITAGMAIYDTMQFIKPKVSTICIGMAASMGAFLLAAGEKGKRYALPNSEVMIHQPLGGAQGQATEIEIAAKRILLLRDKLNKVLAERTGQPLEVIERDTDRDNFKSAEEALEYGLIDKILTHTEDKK
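FRET quenching reversal measured ClpP activation: 10 microg/mL B. subtilis ClpP at pH 8 with the FRET-FV decapeptide, read at 430 nm after 320 nm excitation. The 20-min minus 0-min signal was scaled between DMSO/no-enzyme wells and ADEP (5.8 microM final).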
Sfp inh – inhibitors of Bacillus subtilis Sfp phosphopantetheinyl transferase | Biochemical Sfp PPTase activity, qHTS | Potency, µM, for the others: max response, negative = inhibition, hits mostly inhibitors | hit rate 3.5% among 310,000; active means well fitted inhibition curve with a large enough effect; inconclusive means small, poorly fitted or top-dose-only effect, or another doubt; inactive means no such curve, though single readings can be large or run the other way;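 further: the enzyme is Sfp with the accession as filed and its product quenches rhodamine fluorescence; potency means the concentration at half of the fitted maximal effect; 0% = enzyme reaction without inhibitor and -100% = no enzyme wells; top concentration of the series not given in the record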
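Step 1, compound plus 15 nM Sfp-PPTase, 15 min, room temperature. Step 2, add rhodamine-CoA (5 uM) and BHQ-2-YbbR (12.5 uM). Step 3, read 525/598 nm fluorescence at 0 and 30 min.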
Menin MLL FP FL – inhibitors of human menin-MLL interaction, wild-type MLL peptide; Fluorescence polarization, fluorescein-MLL peptide displacement from menin; FP activity change, % at 61.4 µM; 290,000 tested, under 10 active; inconclusive = falling polarisation curve, or a change in total fluorescence; inactive = total fluorescence flat and polarisation flat or rising; no compound was filed as active; the % refers to the polarisation; negative = inhibition;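 further: % of control where 0% means no effect; inhibitors lower the polarisation; unlabelled MLL peptide was the positive control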
The depositor's hits bear a star; u = inconclusive; x = no result given; & = joins results of further samples; [ ] = dose if it differs, or a comment. This is a random part of the collection, and some 4.4% of all compounds hit somewhere here.

Order of values – TRPML1 agonist	PINK1 modulator	TRPML1 inh	TRPV1 potentiator	ClpP mod	Sfp inh	Menin MLL FP FL
1) O=C(Nc1ccc2oc(-c3ccccc3)nc2c1)c1ccc2c(c1)OCCO2
→ -0.5	13µM*	36	24	67%	8%	-0.9
2) O=C(Nc1ccc(NC(=O)C2CC2)nc1)c1ccccc1F
→ -0.1	-0.8%	4	12	x	11%	3.1
3) CCC(C)NC(=O)c1cnn2c1NC(c1ccc3c(c1)OCO3)CC2C(F)(F)F (configuration not stated)
→ -0.4	-2.1%	20	-2	-0.2%	8%	2.3
4) CCOc1cc(-c2ccc(OC(=O)c3ccc(C)cc3)c(OC)c2)cc(=O)c2c(C)oc(C)c12
→ 1.3	4.1%	-6	x	-0.9%	x	x
5) S=C(NCc1ccccc1)N1CCCCC1
→ 0.3	-0.1%	-1	-5	0.9%	11%	-1.4
6) CN(C)c1ccc(C=Nc2ccc(/C=C/c3ccnc4ccccc34)cc2)cc1
→ 1.2	-0.6%	x	x	-3.2%	x	x
7) COc1cccc2c1cc1c(=O)n(CC(=O)N3CCN(c4ccccc4F)CC3)nc(C)n12
→ -0.3	0.2%	4	x	7.9µM*	x	x
8) CCN(CC)C(=O)Oc1cc(COC)nc(-c2ccccc2)n1
→ -0.7	1.1%	9	-26	-4.2%	8%	1.1
9) Cc1nnc2n(C3CCCCC3)c(=O)c3c4c(sc3n12)COC(C)(C)C4
→ 2.4	-0.8%	-7	-10	-1.7%	22%	-0.7
10) COc1ccccc1CCNC(=O)C1CCC(=O)N(C2CC2)C1 (configuration not stated)
→ 0.0	1.4%	-7	13	-0.3%	15%	1.2
11) CC(=O)c1cccc(N(C(=O)c2ccccn2)C(C(=O)NC2CCCCC2)c2ccccc2)c1 (configuration not stated)
→ -1.3	2.8%	-8	-22	-0.1%	9%	x
12) O=C(COc1ccc(Cl)cc1Cl)Nc1cccnc1
→ -1.1	0.5%	-10	-20	x	0%	-4.5
13) COc1ccc(Cl)cc1N=C1NC(=O)CC(C(=O)Nc2ccccc2C(F)(F)F)S1 (configuration not stated)
→ 4.5	1.1%	2	x	0.6%	x	x
14) Cc1cc2c(OCC(O)CNC3CCCCC3)cccc2[nH]1 (configuration not stated)
→ -0.1	-0.7%	-14	u	x	5%	3.5
15) O=C(NC(=S)NNC(=O)c1cccs1)c1ccco1
→ -0.1	1.1%[38.3 µM]	-2	-12	-1.0%	79µM*	0.8
16) O=C(Cn1cnc2ccccc2c1=O)NCc1ccc2c(c1)OCO2
→ 0.7	0.4%	17	5	-0.1%	21%	2.0
17) Cc1cccc(Oc2ncnc(N)c2[N+](=O)[O-])c1
→ 1.3	-1.0%	-5	8	-1.5%	15%	4.0
18) COc1ccc(-c2nsc3c(N4CCCC4)ncnc23)cc1
→ 0.8	-3.7%	1	4	0.3%	-8%	1.4
19) CCc1c(C(C)S(=O)(=O)c2ccc(C)cc2)[nH]c(=O)n1-c1ccc(C)cc1 (configuration not stated)
→ -0.6	2.4%	8	27	-0.4%	56µM*	-1.2
20) N#CCCn1cc(C=C(C#N)C#N)c(-c2ccc(Cl)cc2)n1
→ 0.1	-0.9%	8	-13	x	-3%	u
21) O=C(NC1CCCCC1)c1ccc2c(c1)N(Cc1ccc(Cl)cc1)C(=O)c1ccccc1S2(=O)=O
→ 0.0	1.3%	24	x	-2.1%	x	x
22) O=C(Nc1ccccc1Cl)c1cc(C2CCCCN2C(=O)c2ccccc2)on1 (configuration not stated)
→ -0.7	0.4%	x	x	-0.6%	x	x
23) COc1ccc(S(=O)(=O)N(CC(=O)Nc2cccnc2)c2ccc(Cl)cc2)cc1
→ 2.5	6.0%	-7	x	-0.6%	x	x
24) Cc1cc(C)cc(N(CC(=O)N2CCCC2)S(C)(=O)=O)c1
→ 0.0	-1.0%	0	-3	-0.9%	29%	-4.1
25) CC(C)Cn1c(=O)n(C)c(=O)c2[nH]cnc21
→ 0.5	2.4%&-1.4%	-15	u	-2.1%	5%&2%&1%&2%&-4%	-1.3&3.2&3.0&0.7&-0.5
26) CCCC(=O)N=C1SC2CS(=O)(=O)CC2N1c1ccc(CC)cc1 (configuration not stated)
→ -0.8	-1.7%	0	17	-0.4%	6%	4.1
27) C[C@@H]1CN([C@H](C)CO)C(=O)CCCn2cc(nn2)CO[C@H]1CN(C)C(=O)Nc1ccccc1C(F)(F)F
→ 0.3	0.5%	2	x	-4.9%	x	x
28) COCCNC(=O)c1ccc(C2SCC(=O)N2Cc2ccco2)cc1 (configuration not stated)
→ 0.5	-0.5%	9	4	-0.3%	11µM*	1.9
29) O=C(Nc1ccc2[nH]ncc2c1)C1CCC1
→ 0.7	0.2%	-10	u	1.2%	4%	-1.6
30) CCNc1nc(C)c(CN(C(C)=O)c2ccccc2)nc1C#N
→ 0.1	0.4%	-6	8	1.0%	5%	3.1
31) CCCCN(CC)S(=O)(=O)c1ccc(C(=O)Nc2nnc(-c3cccs3)o2)cc1
→ -0.4	0.0%	2	13	1.6%	31%[activator]	0.2
32) O=C1CC(c2nc3ccccc3n2CCCCOc2ccccc2)CN1c1ccccc1Cl (configuration not stated)
→ 1.3	29%	22	x	-9.2%	x	x
33) O=C(OCc1ccccc1)c1cn(-c2ccccc2)nc1-c1ccncc1
→ -0.4	x	4	-16	-1.9%	89µM*	2.1
34) CCCn1c(N)c(N(CCOC)C(=O)c2cc(C)cc(C)c2)c(=O)[nH]c1=O
→ -0.2	-1.1%	16	22	x	20%	-10
35) COc1ccc(CCN(C)CC(O)COc2ccc(C(C)=O)cc2OC)cc1OC (configuration not stated)
→ 0.9	-2.2%	-16	1	x	-2%	4.0
36) Cc1nn(-c2ccccc2)c(-n2cccc2)c1C(=O)NCCc1ccc(Cl)cc1
→ 1.2	1.1%	17	x	-0.3%	x	x
37) CC(Oc1ccc2cc(-c3ccccc3)c(=O)oc2c1)C(=O)NCC1CCC(C(=O)O)CC1 (configuration not stated)
→ x	0.2%	x	-13	4.3%	12%	-3.1
38) Clc1ccc(N2N=C(c3cccs3)CC2c2ccco2)cc1 (configuration not stated)
→ -0.3	6.8%	0	6	3.5µM*	u	3.5
39) Fc1ccccc1NC(=S)NCc1ccc2c(c1)OCO2
→ -0.3	-0.5%	26	-18	-6.1%	10%	0.7
40) Cc1ccc(S(=O)(=O)N2CCC(C(=O)NCCCN3CCOCC3)CC2)cc1
→ 0.6	4.5%	6	-4	-2.9%	x	x
41) CCc1cc2c(N3CCN(c4ccccc4)CC3)ncnc2s1
→ 3.7	-0.3%	33	-22	-3.4%	-17%	3.3
42) CN(C)S(=O)(=O)N1CCCN(S(=O)(=O)N(C)C)CC1
→ -0.5	-1.4%	34	8	-1.5%	11%	4.8
43) CC(C)(C)C(=O)NC(=S)NNC(=O)c1sc2ccccc2c1Cl
→ 71*	-4.7%	0	-22	167%	4%	0.0
44) CCC(C)Sc1ccc([C@H]2N[C@@](C)(C(=O)OC)[C@H]3C(=O)N(CC)C(=O)[C@@H]23)cc1 (some centres not stated)
→ 0.4	-0.4%	-12	-8	1.0%	x	x
45) COc1ccc(CCN2C(=O)N[C@@H](C(C)C)C2=O)cc1
→ 1.5	0.5%	17	15	2.6%	17%	-1.6
46) COc1ccc(-c2nc(C)c(CCNC(=O)c3cc(OC)c(OC)c(OC)c3)s2)cc1OC
→ 2.5	-0.4%	42	x	3.7%	x	x
47) CC(=O)C1=C(O)C(=O)N(c2ccc(C)cc2)C1c1ccccn1 (configuration not stated)
→ -0.2	-0.8%	0	3	-3.2%	-9%	-4.2
48) Cc1nn(C)c(=S)n1-c1ccc(Cl)cc1
→ -0.1	-1.0%	-4	13	-0.1%	2%	0.5
49) CCOC(=O)c1c(CN2CCN(Cc3ccccc3)CC2)n(C)c2cc(Br)c(OC)cc12
→ -0.5	13%	11	-1	0.6%	-15%	-0.3
50) COc1ccc(-n2nnc3c(=O)n(CC(=O)Nc4ccc5c(c4)OCCO5)cnc32)cc1OC
→ 0.5	u	21	10	u	-25%	x
51) Cc1ccc(NC(=O)C2CCCN(S(=O)(=O)c3cccs3)C2)cc1 (configuration not stated)
→ 0.2	0.6%	21	-6	1.4%	17%	-0.4
52) O=C1C2C3C=CC(CC3)C2C(=O)N1c1cccc(Br)c1 (configuration not stated)
→ -1.1	3.5%	0	23	-1.3%	9%	1.7
53) C=CCNC(=O)C1CC2Cn3c(nc4cc(Cl)c(Cl)cc43)C2N1C (configuration not stated)
→ -0.5	-1.3%	-8	u	1.7%	x	x
54) COc1ccc(NC(=O)C2Cc3c(-c4ccc5c(c4)OCO5)ccnc3O2)cc1 (configuration not stated)
→ -0.6	5.0%	x	x	4.0%	x	x
55) Clc1ccc(/C=N/Nc2nnc(-c3ncc[nH]3)c3ccccc23)cc1
→ 1.8	12%[38.3 µM]	27	-54	-1.3%	16%	1.7
56) COCc1cc(C)nc(N2CCOCC2)c1C#N
→ -0.4	0.1%	9	-14	4.8%	12%	-1.5
57) CCN(CC)S(=O)(=O)c1cccc(C(=O)OCC(=O)NCc2ccccc2OC)c1
→ 0.0	-2.3%	-4	-18	x	x	x
58) CCCC(C)NC(=O)c1cccc(Oc2ccccc2)c1 (configuration not stated)
→ -0.2	-0.3%	-6	11	x	15%	-0.9
59) COc1ccc(CN2CCNC(=O)C2CC(=O)NCCc2nc(C)c(C)s2)c(OC)c1 (configuration not stated)
→ 0.5	-1.3%	-5	2	x	14%	3.4

Source: PubChem (National Center for Advancing Translational Sciences (NCATS))
